Menin-MLL FL inh – qHTS Assay for Inhibitors Targeting the Menin-MLL Interaction in MLL Related Leukemias: Competition With Fluorescein Labeled MLL-derived Peptide. Fluorescence polarization, fluorescein-MLL peptide displacement from menin. FP activity change, % at 61.4 µM. 290,000 tested, under 10 active. AID 1766, 2009; inconclusive = falling polarisation curve, or a change in total fluorescence; inactive = total fluorescence flat and polarisation flat or rising; no compound was filed as active; the % refers to the polarisation; negative = inhibition;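 also: % of control where 0% means no effect; inhibitors lower the polarisation; unlabelled MLL peptide was the positive control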
An asterisk follows results filed as active; ? = inconclusive; & = joins results of further samples; [ ] = remark or other dose.

SMILES	Menin-MLL FL inh
NC[C@H](CC(=O)O)c1ccc(Cl)cc1	5.4
CC(C)NC(=O)N1CCC2(CCNCC2)CC1	0.9
O=C1C=Cc2ccccc2C1=O	?
Oc1ccc(C(=C(Cl)Cl)c2ccc(O)cc2)cc1	-0.7
C=C(C)CN1CC[C@]23c4c5ccc(O)c4O[C@H]2c2[nH]c4ccccc4c2C[C@@]3(O)C1C5	-1.4
ClC1=C(Cl)C2(Cl)C(CBr)CC1(Cl)C2(Cl)Cl (configuration not stated)	?
O=S1OCC2C(CO1)C1(Cl)C(Cl)=C(Cl)C2(Cl)C1(Cl)Cl (configuration not stated)	-1.1
CC(=O)c1ccccc1NC(=O)C1C2CCC(O2)C1C(=O)O (configuration not stated)	0.7
CN(C)C1C(=O)C(C(N)=O)=C(O)[C@@]2(O)C(=O)C3=C(O)c4c(O)cccc4[C@@](C)(O)C3C[C@@H]12 (some centres not stated)	?
CC1=C(O)C(=O)C=C2C1=CC=C1[C@]2(C)CC[C@@]2(C)C3C[C@](C)(C(=O)O)CC[C@@]3(C)CC[C@@]12C (some centres not stated)	0.3
COC1CC(OC2CCC3(C)C(CCC4C3CCC3(C)C(C5=CC(=O)OC5)C(OC(C)=O)CC43O)C2)OC(C)C1OC1OC(COC2OC(CO)C(O)C(O)C2O)C(O)C(O)C1O (configuration not stated)	-0.4
CC(=O)[C@@H]1CC[C@H]2[C@H]3CC[C@H]4C[C@@H](O)CC[C@]4(C)[C@@H]3C(=O)C[C@@]12C	-3.9[24.8 µM]
CCCCCCCCCCCCCC(=O)O[C@@H]1[C@@H](C)[C@@]2(O)[C@@H](C=C(CO)C[C@@]3(O)C(=O)C(C)=C[C@@H]23)C2C(C)(C)[C@@]21OC(C)=O (some centres not stated)	-0.3
NC(N)=NOCCC(N)C(=O)O (configuration not stated)	1.0&-0.6
C=CCN1CCC2(C)c3cc(O)ccc3C[C@H]1[C@H]2C	-11.4
C[C@](O)(CS(=O)(=O)c1ccc(F)cc1)C(=O)Nc1ccc(C#N)c(C(F)(F)F)c1	2.7
CC(=O)[C@H]1CC[C@H]2C3CC[C@H]4C[C@H](O)CC[C@]4(C)C3CC[C@]12C (some centres not stated)	4.5
c1ccc(C2=NP(N3CCOCC3)(N3CCOCC3)=NC(N3CCOCC3)=N2)cc1	-0.6
C[C@@]12CCC(Cl)C[C@H]1CCC1C2CC[C@]2(C)C(=O)CCC12 (some centres not stated)	-3.0
c1ccc(N2CC3(CCNCC3)C2)nc1	0.2
CC/C=C\C/C=C\C/C=C\C/C=C\C/C=C\CCCC(N)=O	0.8
Cc1ccc(-c2nc(CS(=O)CC(=O)N3CCC4(CC3)OCCO4)c(C)o2)cc1 (configuration not stated)	-2.9
CCCCCCCCCCCCCCCCOC[C@@H](O)COP(=O)([O-])OCC[N+](C)(C)C	-1.4
ClC=C(Cl)Cl	5.1
CN1Cc2c(ccc3c2OCO3)[C@@H]2[C@@H](O)Cc3cc4c(cc3[C@@H]21)OCO4	-4.8[24.8 µM]

Reprinted from the part before: 4 entries, followed by the next part.
SMILES	Menin-MLL FL inh
Cc1ccc(-c2nc(CS(=O)CC(=O)N3CCC4(CC3)OCCO4)c(C)o2)cc1 (configuration not stated)	-2.9
CCCCCCCCCCCCCCCCOC[C@@H](O)COP(=O)([O-])OCC[N+](C)(C)C	-1.4
ClC=C(Cl)Cl	5.1
CN1Cc2c(ccc3c2OCO3)[C@@H]2[C@@H](O)Cc3cc4c(cc3[C@@H]21)OCO4	-4.8[24.8 µM]
NC[C@H](CS(=O)(=O)O)c1ccc(Cl)cc1	-3.7
OC(O)C(Cl)(Cl)Cl	3.2
CC[N+](CC)(CCCNC1=CC(=O)C(NCCC[N+](CC)(CC)Cc2ccccc2)=CC1=O)Cc1ccccc1	-7.6
CNC(=O)Oc1ccccc1C(=O)Nc1ccccc1	-2.6
C=CCN1CC[C@@]23c4c5ccc(O)c4O[C@H]2/C(=N\N=C2/CC[C@@]4(O)[C@H]6Cc7ccc(O)c8c7[C@@]4(CCN6CC=C)[C@@H]2O8)CC[C@]3(O)[C@@H]1C5	?
CCC/C=C(\CCC)C(NP(=O)(c1ccccc1)c1ccccc1)c1ccccc1 (configuration not stated)	-6.8
CC(=O)N1CC[N+](C)(C)CC1	-30.0
Cc1ccc2c(c1)Cc1c(C(=O)NC3CCCCC3)nn(-c3ccc(Cl)cc3Cl)c1-2	2.8
CCCCCCC(C)OC(=O)COc1ccc(Cl)cc1Cl (configuration not stated)	-4.0
CCCN1CCC[C@@H]2Cc3n[nH]cc3C[C@H]21	2.1
O=C(Nc1cccc(F)c1)N1CCC2(CC1)CCN(C(=O)Oc1ccccc1)CC2	3.9
CC1N(P(=O)(c2ccccc2)c2ccccc2)CC(O)(c2ccccc2)CC12CC2 (configuration not stated)	4.3
C=C(C)[C@]12C[C@@H](C)[C@@]34OC(Cc5ccccc5)(O[C@@H]1[C@@H]3C=C(COC(=O)Cc1cc(OC)c(O)cc1I)C[C@]1(O)C(=O)C(C)=C[C@@H]41)O2	?
C[C@H](N)Cc1c[nH]c2ccc(OCc3cccs3)cc12	37.4[activator]
O=C(Oc1ccccc1)N1CCC2(CCCN(Cc3nccs3)C2)CC1	0.5
CC12NC(Cc3ccccc31)c1ccccc12 (configuration not stated)	4.2
O=S(=O)(c1ccc(Cl)cc1)c1cc(Cl)c(Cl)cc1Cl	4.4
O=C1C=C2C(=CCOC2O)O1 (configuration not stated)	2.2
C=C(C)C(=O)CP(=O)(OCC)OCC	1.3
CCCN1C[C@H](C)N([C@H](c2ccc(C(=O)N(CC)CC)cc2)c2cccc(OC)c2)C[C@H]1C	-14.9
CN1C(=O)CCS(=O)(=O)C1c1ccc(Cl)cc1 (configuration not stated)	2.8&3.5&-2.4
Nc1nc(O)c(-c2ccccc2)o1	-4.5
CNC(=O)[C@H]1C[C@@H]1[C@H](NP(=O)(c1ccccc1)c1ccccc1)c1ccccc1	-0.4
CC(C)CN1CCCC2(CCN(C(=O)c3ccncc3)CC2)C1	-8.9
CCOP(=S)(OCC)OCCSCC	-22.3

Looked up above.
Result of C[C@@]12CCC(Cl)C[C@H]1CCC1C2CC[C@]2(C)C(=O)CCC12 (some centres not stated) in Menin-MLL FL inh: -3.0
Result of CCCN1C[C@H](C)N([C@H](c2ccc(C(=O)N(CC)CC)cc2)c2cccc(OC)c2)C[C@H]1C in Menin-MLL FL inh: -14.9

The listing picks up with the seven entries that preceded the break.
SMILES	Menin-MLL FL inh
C=C(C)C(=O)CP(=O)(OCC)OCC	1.3
CCCN1C[C@H](C)N([C@H](c2ccc(C(=O)N(CC)CC)cc2)c2cccc(OC)c2)C[C@H]1C	-14.9
CN1C(=O)CCS(=O)(=O)C1c1ccc(Cl)cc1 (configuration not stated)	2.8&3.5&-2.4
Nc1nc(O)c(-c2ccccc2)o1	-4.5
CNC(=O)[C@H]1C[C@@H]1[C@H](NP(=O)(c1ccccc1)c1ccccc1)c1ccccc1	-0.4
CC(C)CN1CCCC2(CCN(C(=O)c3ccncc3)CC2)C1	-8.9
CCOP(=S)(OCC)OCCSCC	-22.3
C[C@@H]1C[C@H]2CC[C@H](O2)[C@H](C)C(=O)O[C@@H](C)C[C@@H]2CC[C@@H](O2)[C@@H](C)C(=O)O[C@H](C)C[C@H]2CC[C@H](O2)[C@H](C)C(=O)O[C@@H](C)C[C@@H]2CC[C@@H](O2)[C@@H](C)C(=O)O1	0.0
CCC[C@@](C)(COC(N)=O)COC(=O)NC(C)C	-4.9[24.8 µM]
CN1[C@@H](C[C@@H](O)c2ccccc2)CCC[C@@H]1C[C@H](O)c1ccccc1	-0.8[24.8 µM]
CCCCCCCCCCCC[N+](C)(C)CCOc1ccccc1	-2.0
C[N+]1([O-])[C@@H]2CC[C@H]1CC(OC(=O)[C@@H](CO)c1ccccc1)C2 (some centres not stated)	-2.2[24.8 µM]
CC(C)CC(NP(=O)(O)O[C@@H]1O[C@@H](C)[C@H](O)[C@@H](O)[C@H]1O)C(=O)NC(Cc1c[nH]c2ccccc12)C(=O)O (some centres not stated)	0.4
Clc1ccc(C(c2ccc(Cl)cc2)C(Cl)(Cl)Cl)cc1	9.7&-4.3
C=C[C@@H]1CN2CC[C@H]1C[C@H]2[C@H](O)c1ccnc2ccccc12	-1.5
CCCCN1C(=O)/C(=C/c2ccc(N3CCCCCC3)cc2)C(=O)NC1=S	15.3
COC(=O)[C@@H]1C[C@@]2(O)[C@H](O)[C@H](O)[C@H](O)C[C@H]2N1Cc1cccnc1	-5.6
C#CC(C)(O)CC (configuration not stated)	-6.9
NC(N)=NOCC[C@H](N)C(=O)O	?
CCC1(c2ccccc2)CCC(=O)NC1=O (configuration not stated)	-6.2
CC(=O)OC1C[C@H](O[C@@H]2C(O)C[C@H](O[C@@H]3C(O)C[C@@H](OC4CC[C@]5(C)C(CCC6C5CC(O)[C@@]5(C)C(C7=CC(=O)OC7)CC[C@@]65O)C4)OC3C)OC2C)O[C@H](C)[C@H]1O[C@H]1OC(CO)C(O)C(O)C1O (some centres not stated)	-2.1
Cc1cnc2c(C(=O)O)c(Cl)ccc2c1	4.5
FC(F)(F)c1cccc(N2CCNCC2)c1	3.0&-6.8
O=C(CC[N+](=O)[O-])OCC1OC(O)C(OC(=O)CC[N+](=O)[O-])[C@@H](OC(=O)CC[N+](=O)[O-])C1OC(=O)CC[N+](=O)[O-] (some centres not stated)	-7.0
CN1C(=O)CN=C(c2ccccc2)c2cc([N+](=O)[O-])ccc21	-1.1&-0.4
C[C@H](N)Cc1c[nH]c2ccc(O)cc12	5.9
CC(=O)OCC(N)C(=O)c1ccccc1 (configuration not stated)	-2.3
CCOC(=O)c1ncn2c1[C@H]1CCCN1C(=O)c1cc(OC)ccc1-2	?
COc1cc2c(cc1OC)[C@@H]1C(=O)c3ccc4oc(C(C)C)cc4c3OC1CO2 (some centres not stated)	15.2
NCCc1c[nH]c2ccc(F)cc12	-2.4
CC1Cc2c(cnc3c2CN(C)CC3)CO1 (configuration not stated)	-2.4[11.7 µM]
CC1(C)S[C@@H]2[C@H](N)C(=O)N2C1C(=O)O (some centres not stated)	-3.2

(next part)
SMILES	Menin-MLL FL inh
CC1=C2C3OC(=O)[C@H](C)[C@H]3CC[C@@]2(C)C=CC1=O (some centres not stated)	9.1
CN1/C(=C\C=C\C2=[N+](C)c3ccc4ccccc4c3C2(C)C)C(C)(C)c2ccccc21	?
CN1CCCCC1Cn1cc(C(=O)c2cc([N+](=O)[O-])ccc2I)c2ccccc21 (configuration not stated)	-1.8
Cc1ccc2c(c1)C1(CCN(CCc3nc(-c4ccccc4)oc3C)CC1)OC(=O)N2	0.9
CCCCC/C=C\C/C=C\C/C=C\C=C\[C@H](CCCC(=O)O)OO	-4.9
C[N+](C)(C)CCOC(=O)C(O)(c1ccccc1)c1ccccc1	0.5
CC[C@@H]1CN2CCc3cc(OC)c(OC)cc3[C@H]2C[C@@H]1C[C@H]1NCCc2cc(OC)c(OC)cc21	-11.4[24.8 µM]
CC(C)(C)NCC(O)c1cc(Cl)c(N)c(C(F)(F)F)c1 (configuration not stated)	5.2
COc1ccccc1Cn1c(SCC(=O)C(C)(C)C)nc2cc(C(=O)N3CCC4(CC3)OCCO4)ccc2c1=O	-0.4
NC1CCCC[C@@H]1N (some centres not stated)	-5.7
CCC1(CC)C(=O)NC(=O)N(C)C1=O	1.6
C=CCN(C1=NCCN1)c1c(Cl)cccc1Cl	2.6&1.3
O=C(Nc1ccccc1)c1ccccc1I	?
CO/C1=C\C(C)=C\[C@@H](C)[C@@H](O)[C@@H](C)C/C(C)=C/C=C/[C@H](OC)[C@@H]([C@@H](C)[C@@H](O)[C@H](C)[C@@]2(O)C[C@@H](O)[C@H](C)C(C(C)C)O2)OC1=O (some centres not stated)	-8.1
CON(C)C(=O)Nc1ccc(Br)c(Cl)c1	?
CCCCCCCCCC(CC)c1ccc(S(=O)(=O)O)cc1 (configuration not stated)	6.9
CN1C[C@H](C(=O)N[C@@]2(C)O[C@@]3(O)C4CCCN4C(=O)C(Cc4ccccc4)N3C2=O)C[C@H]2c3cccc4[nH]cc(c34)C[C@H]21 (some centres not stated)	-5.3
CCC1OC2(C)C(O)C(/C=C/C=C/C=C/c3oc(=O)cc(OC)c3C)OC1(C)C2OC(C)=O (configuration not stated)	7.9
CCCCC/C=C\C/C=C\C/C=C\C/C=C\CCCC(=O)NCCc1ccc(O)c(O)c1	2.1&7.9
Cc1[nH]cnc1CCN	-3.0
CC1(C)C2C[C@@H](O)[C@]3(C)C(CC[C@@]4(C)[C@H](c5ccoc5)C[C@H]5O[C@]543)[C@@]2(C)[C@@H](O)C[C@H]1O (some centres not stated)	-3.4
Cc1ccc(N2C(=O)NC(=O)/C(=C\c3ccsc3)C2=O)cc1C	?
Cc1cccc(NC(=O)N[C@@H]2N=C(c3ccccc3)c3ccccc3N(CC(=O)c3ccccc3C)C2=O)c1	1.8
NC(=O)COc1c(F)cc(SCCNS(=O)(=O)c2ccccc2)cc1F	6.7&-0.7
C=CC[N+]1(C)CCC23c4c5ccc(O)c4O[C@H]2C(=O)CC[C@@]3(O)C1C5 (some centres not stated)	-0.4

Next section
SMILES	Menin-MLL FL inh
C=C[C@]12CN(C)[C@H]3C1[C@@]1(C(=O)Nc4ccccc41)[C@H]1C[C@H]2[C@H]3CO1	-8.3[24.8 µM]
CN1C(=O)CC(=O)N(c2ccccc2)c2cc(Cl)ccc21	0.6
O=C1NC(=O)N(c2ccccc2)C(=O)/C1=C\c1ccc([N+](=O)[O-])o1	?
CCC(=O)OC1CCC2C3CCC4=CC(=O)CC[C@@]4(C)C3CC[C@]12C (some centres not stated)	0.4
CCCCn1c(=O)c(C(=O)Nc2nnc(C(C)C)s2)c(O)c2ccccc21	-3.6
CCOc1cc(C=C2C(=O)NC(=O)NC2=O)cc([N+](=O)[O-])c1O	-6.5
CC(C)(C)C(O)C(Oc1ccc(-c2ccccc2)cc1)n1cncn1 (configuration not stated)	?

This is a subset; rates above refer to the full screens.
